Screening results (PubChem)
S aureus helic: blocks Staphylococcus aureus DNA helicase. purified S. aureus helicase, fluorescence unwinding assay; about half of the hits fall short of the stated cut. inhibition, %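 (tested at about 80 µM)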. 120,000 tested, 0.05% active;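 active means both duplicates at 50% or more, or one of them with a favoured structure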;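 further: 0% = mean of negative control wells and 100% = mean of positive control wells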
MgrA-DNA mod: modulators of Staphylococcus aureus MgrA DNA binding | inhibition, %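 (about 10 µg/mL by stock and volumes)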 | 84,000 tested, 0.13% active | fluorescence polarization;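 active means above 50% in either of two replicates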;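 further: 0% = protein plus DNA without compound and 100% = DNA alone without protein; higher means less MgrA bound to DNA so lower polarization; one replicate is shown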
* = called active by the depositor; . = not tested or not shown; & = joins results of further samples.

Start of the data: the first 5 compounds (preview)
canonical_smiles	S aureus helic	MgrA-DNA mod
CCCOc1ccccc1/C=C1\SC(N2CCN(C(C)=O)CC2)=NC1=O	-2	.
O=C(OCC(=O)N1CCCCC1)c1n[nH]c2ccccc12	-2	.
Cc1cc(N=Nc2ccc(Cl)cc2)c2c(C)ccc(C(C)C)cc1-2	.	0.7
O=c1[nH]c2cc(Br)cnc2[nH]1	-49	.
CCOC(=O)c1cc2c(=O)n3cccc(C)c3nc2n(C2CCCC2)c1=N	0	2.1

Results (from the top)
canonical_smiles	S aureus helic	MgrA-DNA mod
CCCOc1ccccc1/C=C1\SC(N2CCN(C(C)=O)CC2)=NC1=O	-2	.
O=C(OCC(=O)N1CCCCC1)c1n[nH]c2ccccc12	-2	.
Cc1cc(N=Nc2ccc(Cl)cc2)c2c(C)ccc(C(C)C)cc1-2	.	0.7
O=c1[nH]c2cc(Br)cnc2[nH]1	-49	.
CCOC(=O)c1cc2c(=O)n3cccc(C)c3nc2n(C2CCCC2)c1=N	0	2.1
O=C(CNc1ccc(Cl)cc1)c1cc2ccccc2oc1=O	-28	0.9
CN1C(=O)/C(=C/c2cccc(Cl)c2)Sc2ccc(C(=O)N3CCCCC3)cc21	-3	-2.5
COc1cc(OC)c(NC(=O)CS(=O)(=O)Cc2nc(-c3ccc(C)cc3)oc2C)cc1Cl	10	.
CN1/C(=C\C(=O)CSc2nc(N)cc(=O)[nH]2)C(C)(C)c2ccccc21	-9	.
CCN(CC)S(=O)(=O)c1ccc(C(=O)Nc2cc(C)c3c(=O)oc4ccccc4c3n2)cc1	0	.
CC12CCC(C(=O)O)(C/C1=N\N)C2(C)C (configuration not stated)	11	-2.8
Cc1ccc(C(=O)OCc2c(C)noc2C)c(C)c1	4	.
COc1ccc(OC)c(NC(=O)c2c(NC(=O)CNCc3ccco3)sc3c2CCC3)c1	17	2.0
CCn1nc(C)c(Br)c1-c1nc(-c2ccc(C(F)(F)F)cn2)no1	.	-2.5
O=c1[nH]c2ccccc2nc1-c1ccccc1	-23&6	.
Cc1ccc(NS(=O)(=O)N(C)C)cc1	.	-3.2
O=C(c1cccc(F)c1)c1ccc2c(c1)CCCO2	1	0.2
COc1ccc(S(=O)(=O)N(C)CCc2ccc(OC)c(OC)c2)cc1	5	.
O=C(CSc1nnc(-c2ccc(F)cc2)o1)N(Cc1nnc(-c2ccc(Cl)cc2)o1)C1CC1	-13	.
Cn1c(=O)c2c(nc(NCCc3ccccc3)n2Cc2ccc(Br)cc2)n(C)c1=O	.	3.4
CCS(=O)(=O)Nc1ccc(C2=NN(S(=O)(=O)c3ccccc3)C(c3ccccc3)C2)cc1 (configuration not stated)	-18	2.5
COc1ccc(S(=O)(=O)NNC(=O)c2ccc(-n3c(C)ccc3C)cc2)cc1	.	4.0
CC(C)(CNC(=O)CSc1ccc(F)cc1)N1CCOCC1	-2	.
NS(=O)(=O)c1ccc(Nc2nc(-c3cccnc3)cs2)cc1	25	.
CC(=O)n1nccc1-c1sc(COc2cccc(Cl)c2)nc1C	.	-1.2
O=C(CSc1ccccc1C(=O)O)c1cccc([N+](=O)[O-])c1	.	-1.7
O=C(CCCn1c(=O)oc2ccccc21)NCCN1C(=O)S/C(=C\c2ccc(F)cc2)C1=O	7	.
CCC(C)C(N)C(=O)N1CCOCCN(C(=O)C(N)C(C)CC)CCOCC1 (configuration not stated)	13	2.8
CC(C)CNC(=O)[C@@H]1CCCN1C(=O)c1cccs1	-2	.
O=S1(=O)N=C(N2CCN(S(=O)(=O)c3cccs3)CC2)c2ccccc21	14	.
CN=C(C)/C(C(=O)OC)=C(\O)c1ccc(C(F)(F)F)cc1	.	-0.3
Nc1nc(COc2ccc3ccccc3c2)cs1	0	.
CCOC(=O)c1ccc(NC(=O)CCc2c[nH]c3ccccc23)cc1	7	-1.7
O=C(NCc1ccc2c(c1)OCO2)c1cc2c(s1)CSC2	-16	.
COc1ccc(C(=O)NCCCN2CCOCC2)cc1S(=O)(=O)N1CCCc2ccccc21	-12	.
COc1cc2c(cc1OC)CN(Cc1cc(=O)oc3c(C)c(C)ccc13)CC2	11	.
Cc1ccc(S(=O)(=O)NC(=O)NC2CCN(c3nccc(C(F)(F)F)n3)CC2)cc1	.	0.1
O=C(O)c1cccnc1SCc1ccc(F)cc1	2	.
COc1ccc(C(=O)NC(C)C(c2cccs2)N2CCOCC2)cc1 (configuration not stated)	1	-0.2
Clc1ccc(-c2cnnc(-c3ccccc3)n2)cc1	12	0.0
CCN(CC)S(=O)(=O)C1CCS(=O)(=O)C1 (configuration not stated)	.	-0.7
O=C(c1c(Cl)cccc1Cl)N1CCN(Cc2ccccc2)CC1	.	0.5
CCCSc1nc2ccc(S(=O)(=O)N3CCOCC3)cc2[nH]1	7	.
Cc1cccc(C)c1NC(=O)c1cccc2ccccc12	.	0.4
CCCCn1c(=N)n(CCOc2ccccc2)c2ccccc21	10	1.6
CCOC(=O)COc1c(Cl)cc(/C=C2/NC(=O)NC2=O)cc1OC	-12	.
O=C(CSc1nc(O)c(C2CCCCC2)c(=O)[nH]1)NCC1CCCO1 (configuration not stated)	4	.
CC1CC(C)CN(S(=O)(=O)c2ccc(N)cc2)C1 (configuration not stated)	10	-1.0
O=C(O)Cc1ccc(C(F)(F)F)cc1	-12	.
O=C(c1ccccc1)N1CN(C(=O)c2ccccc2)CN(C(=O)c2ccccc2)C1	7	-0.8
CN(C)c1nc(Oc2ccc(=O)n(C)n2)nc(N2CCCCC2)n1	4	-0.1
CCN1C(=O)C2(c3ccccc31)c1c(oc3ccccc3c1=O)C(=O)N2CCO (configuration not stated)	2	-0.1
O=C(O)CCC(=O)Nc1ccc(-c2ccccc2)cc1	-2	-1.0
Cc1cc2ccccc2n1CCNC(=O)c1ccc(S(=O)(=O)N(C)C)cc1	-20	.
O=C(O)c1ccc2nc(CCc3nc4ccc(C(=O)O)cc4[nH]3)[nH]c2c1	9	-1.0
Clc1ccc(-c2nnc(Cc3csc(-c4cccs4)n3)o2)cc1	.	-3.0
CCOC(=O)C1=C(C)N=c2s/c(=C/c3cccc([N+](=O)[O-])c3)c(=O)n2C1c1ccc(OC(C)=O)cc1 (configuration not stated)	.	-11
CN1N=C(C(C)(C)C)CSC1=Nc1ccccc1	.	0.5
O=C(NC1CCN(Cc2ccccc2)CC1)C1CC(=O)N(Cc2ccco2)C1 (configuration not stated)	.	-1.1
COC(=O)c1ccc2c(c1)C(=O)/C(=C/c1cn(-c3ccccc3)nc1-c1ccco1)O2	-130	.

More records follow:
canonical_smiles	S aureus helic	MgrA-DNA mod
COCCN=c1scc(-c2ccc(OC(F)F)cc2)n1/N=C/c1ccc[nH]1	-4	.
CC(C)c1ccc(CNc2nc(N)n(-c3ccccc3)n2)cc1	16	3.8
O=C1CCC(=O)N1CNc1cccnc1	.	-1.9
Cc1ncoc1C(=O)NC(c1ccccc1)c1ccccc1	10	.
N#CC(C#N)c1nc2cc3c(cc2nc1Cl)OCCO3	-171	.
O=c1[nH]c2ccc(Cl)cc2c2oc(-c3ccccc3)nc12	.	-3.5
O=C(O)c1ccccc1-c1ccccc1C(=O)Nc1ccccc1O	-16	.
CCO/C=C1\C(=O)N(C)C(=O)c2ccccc21	-9	8.1
O=C(Cn1c(=O)n(CCCS(=O)(=O)C2CCCCC2)c(=O)c2ccccc21)c1ccccc1	7	.
NS(=O)(=O)c1ccc(CNS(=O)(=O)Cc2ccccc2)cc1	17	.
CC(C)N1C(=O)S/C(=C/c2ccccc2OCc2ccc(C(=O)O)cc2)C1=O	7	14
O=C(Cc1cn2ccsc2n1)N/N=C1\CCCCc2ccccc21	-6	.
CCCCN1C(=O)C(O)(c2c(C)nn(CCC#N)c2N)c2ccccc21 (configuration not stated)	4	.
CCN(C(=O)CN1CCCCC1)c1nc2ccc(C)cc2s1	7	0.4
C=CCN1C(=O)/C(=C\c2ccc(OCC(=O)O)c(OC)c2)SC1=S	4	.
Oc1ccc2ccccc2c1C(c1cccs1)N1CCCCC1 (configuration not stated)	.	5.9
Cc1ccc(CNc2c(C(=O)O)cnn2Cc2ccc(C)cc2)cc1	9	.
O=C(CCn1c(=S)[nH]c2c(sc3ccccc32)c1=O)NC1CCCCC1	5	0.7
O=C(Oc1ccc2c(c1)OCO2)c1ccc2c(c1)OCCO2	4	.
COc1ccc(OC)c2sc(NC(=O)C3CC3)nc12	9	.
CCOC(=O)C1=C(N)CC(c2ccccc2)NC1c1ccccc1 (configuration not stated)	11	3.8
COc1cc(/C=C2\SC(=S)N(NC(=O)c3ccccc3[N+](=O)[O-])C2=O)cc(OC)c1OC	.	0.9
Oc1sc(-c2ccccc2)cc1C=Nc1ccccc1	2	8.6
CNC(=O)CN1C(=O)C2C3C=CC(C3)C2C1=O (configuration not stated)	3	1.4
NC(=S)Cc1nc2ccccc2s1	-36	.
O=C1c2ccccc2C(=O)N1CNc1ccccc1Cl	.	-1.3
CS/C(N)=N/N=C(\C)c1ccc(Cl)c(Cl)c1	.	3.3
Cc1ccc(NC(=O)CC2(C)Nc3ccccc3C(=O)N2c2ccccc2C)c(C)c1 (configuration not stated)	-4	-2.8
COCC(C)N=C1NN=C(c2cc(C)n(Cc3ccccc3Cl)c2C)CS1 (configuration not stated)	-5	.
O=C(O)c1cc(NC(=O)C2CC2)cc(C(=O)O)c1	7	-0.6

New compounds follow.
SMILES | S aureus helic | MgrA-DNA mod
O=C(OCc1cc(Cl)ccc1OC(F)F)c1cccnc1 | -23 | .
Cc1nn(-c2ccccc2)nc1-c1n[nH]c(=S)n1-c1ccc(Cl)cc1 | 1 | .
C/C(N)=C(/C#N)C(=O)CSc1nncn1C | 9 | .
CC1(C)Oc2ccc3ccc(=O)oc3c2C(/C=N/O)C1=O (configuration not stated) | 9 | 0.0
COc1ccc([C@@H]2Sc3ccccc3N(CCN(C)C)C(=O)[C@@H]2OC(C)=O)cc1 | . | 2.3&-0.2
Cc1cc(F)ccc1NCc1ccc2c(c1)OCCO2 | -2 | .
COc1ccc(C(=O)NCc2ccccc2OC)cc1 | . | -1.4
CN[C@@H]1C(O)[C@@H](O[C@@H]2[C@@H](O)[C@H](O[C@H]3OC(CN)=CC[C@H]3N)[C@@H](N)C[C@H]2N)OC[C@]1(C)O (some centres not stated) | . | 1.2
CCOC(=O)C1C(=O)C(C(=O)OCC)C(c2cccnc2)NC1c1cccnc1 (configuration not stated) | 3 | 0.2
Cc1noc(C)c1-c1nc(CSc2n[nH]c(=O)n2C2CC2)no1 | . | 0.8
O=C(/C=C/c1cccs1)Oc1ccc(I)cc1 | . | 4.2
CC1=CC(=C(C#N)C#N)C=C(C)N1CCc1ccccc1 | -1 | .
NS(=O)(=O)c1ccc(N2CCN(CCOc3ccc(Cl)cc3)CC2)nc1 | 19 | .
CS/C(NCc1cccnc1)=C(/C#N)C(=O)c1cccs1 | . | 1.0
CCN1C(=O)c2cccc3c(S(=O)(=O)Nc4cccc(C)n4)ccc1c23 | 6 | .
CCN1C/C(=C/c2ccc(O)cc2)C(=O)/C(=C/c2ccc(O)cc2)C1 | -8 | .
O=C(NCC1COc2ccccc2O1)c1ncoc1-c1ccc2ccccc2c1 (configuration not stated) | 5 | -1.1
N#CCC(c1ccccc1)c1ccc2c(c1)OCO2 (configuration not stated) | 3 | -2.3
CCN(CC)Cc1cc(O)c(CN(CC)CC)cc1O | -23 | 60*
Nc1ccc(S(=O)(=O)NCCO)cc1 | 6 | 2.2

Reprinted at random: four entries already listed, in no set order.
SMILES | S aureus helic | MgrA-DNA mod
N#CCC(c1ccccc1)c1ccc2c(c1)OCO2 (configuration not stated) | 3 | -2.3
CN[C@@H]1C(O)[C@@H](O[C@@H]2[C@@H](O)[C@H](O[C@H]3OC(CN)=CC[C@H]3N)[C@@H](N)C[C@H]2N)OC[C@]1(C)O (some centres not stated) | . | 1.2
C/C(N)=C(/C#N)C(=O)CSc1nncn1C | 9 | .
Cc1nn(-c2ccccc2)nc1-c1n[nH]c(=S)n1-c1ccc(Cl)cc1 | 1 | .

Continuation:
SMILES | S aureus helic | MgrA-DNA mod
CN1CCSc2ccc(C(=O)NC3CCCCC3)cc21 | -10 | .
O=C(CCCCl)Nc1ccc(Cl)cn1 | . | -1.8
COc1ccc(-c2cc(C(F)(F)F)nc(SCCC(=O)N3CCCC3)n2)cc1 | -13 | 1.2
OC(CNCc1ccccc1)COCc1ccc(Cl)cc1 (configuration not stated) | 5 | 0.2
CC1CC(C)(C)CC2(C1)NC(=O)N(c1ccccc1)N2 (configuration not stated) | -4 | -1.7
CCCSc1nsc(SCCC)c1C(N)=O | 1 | -0.8
CN(C)c1ccc(C(F)(F)F)cn1 | . | -2.1
COc1ccc(Nc2nc(N)nc(CSC(=S)N3CCOCC3)n2)cc1 | -29 | .
Cc1ccc(OCc2ccc(C(=O)N3c4ccccc4CC3C)cc2)cc1C (configuration not stated) | -12 | 1.9
Cn1c(=O)c2c(nc(NCC3CCCO3)n2Cc2ccc(Cl)cc2)n(C)c1=O (configuration not stated) | 7 | .
O=C(NCCc1c[nH]c2ccccc12)C1CC(=O)N(Cc2ccco2)C1 (configuration not stated) | 4 | .
O/N=C1\c2ccccc2-c2c(F)c(F)c(F)c(F)c21 | 3 | 2.1
O=C(OCc1nc2ccccc2s1)c1ccco1 | 20 | .
CCOC(=O)CCn1c(=S)n(CCC(=O)OCC)c2ccccc21 | . | 0.5
N#C/C(=C\N1CCN(C(c2ccccc2)c2ccccc2)CC1)S(=O)(=O)c1ccccc1 | . | -1.3
CCOC(=O)COc1ccc2c(c1)OCO2 | 6 | 4.4
COc1cc(OCCN2CCOCC2)ccc1C1C(C#N)=C(N)Oc2nc(C(F)(F)F)[nH]c21 (configuration not stated) | 7 | -0.6
Cn1cnnc1-c1cccc(NS(=O)(=O)c2ccc(N3CCCC3=O)cc2)c1 | 14 | .
CCC(=O)Nc1ccccc1C(=O)OCC(=O)Nc1nc2ccc(C(=O)OC)cc2s1 | 1 | -0.5
CCCN1CCN(c2nc(-c3cccs3)nc3ccccc23)CC1 | 13 | .

A portion of the library, so the mix of outcomes need not match the whole.
